# NPYLR7 agonist: activates Aedes aegypti NPYLR7 receptor; activation, % at 10 µM; AID 1259423; 0.15% of 270,000 active; HEK293T NPYLR7/Galpha15, GCaMP6s calcium fluorescence; in the data active = activation above about 40%;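 also: 0% = vehicle and 100% = reference agonist at the receptor; some compounds past the cut are filed as inactive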
# NPYLR7 agonist max-min: recorded beside NPYLR7 agonist, whose call it bears; activation, %; measured here: Max-Min RFU normalised activation; some inactives read as strong as hits;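 span of the calcium signal over five minutes; 0% = vehicle and 100% = native peptide agonist; compound fluorescence can raise it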
# * = called active by the depositor; & = joins results of further samples. An excerpt (hit frequency here may not be typical).
Molecule	NPYLR7 agonist	NPYLR7 agonist max-min
CC(C)N1C(=O)C(=NN2C(=O)CSC2=S)c2ccccc21	6	5
Cc1nc(CN2CCN(C(=O)CC3COCCN3)CC2)cs1 (stereo not drawn)	-3	-5
O=C(NC1=NCCS1)c1cc2ccccc2o1	15	6
O=C(c1ccc([N+](=O)[O-])cc1)N(CC(=O)N1CCc2sccc2C1c1ccc(Cl)cc1Cl)CC1CCCO1 (stereo not drawn)	1	6
CCC(=O)N1c2ccccc2N=C2CC(c3ccccc3)CC(=O)C2C1c1ccc(Cl)cc1 (stereo not drawn)	-4	-12
Cc1nn(C(C)C)c(C)c1N	-10	-18
C=C(C)Cn1c(SCC(=O)N/N=C\c2c(O)ccc3ccccc23)nnc1-c1ccc(Br)cc1	-5	5
Cc1cc(Br)ccc1NS(=O)(=O)c1ccc(OCC(=O)O)c(C)c1	11	5
CC(C)NC(=O)N(Cc1nccn1Cc1cccc(Cl)c1)C1CC1	5	14
Clc1ccc(C2Oc3ccccc3C3=Nc4ncnn4C(c4ccc(Cl)cc4)C32)cc1 (stereo not drawn)	1	13
CC1(C)CC(=O)C=C(C(=O)N2CCC3(CCc4ccccc43)C2)O1 (stereo not drawn)	1	23
CC(C)n1c(O)c(N=NC(=O)c2ccc(Cn3nnc(-c4ccccc4)n3)cc2)c2ccccc21	6	-2
O=C(NCc1cccc(COc2ccccc2)c1)c1cnccn1	-1	-3
CCCCn1c(O)c(C=Nc2ccccc2)c(C)c(C#N)c1=O	8	6
CCn1cc(NC(=O)Nc2cc(C)ccn2)c2ccccc21	12	1
N#Cc1sc2nc(N)c(C#N)c(-c3ccccc3)c2c1N	7	2
CCOC(=O)c1cc([N+](=O)[O-])sc1NC(=O)c1ccc(Br)cc1	1	2
Cc1ccc(S(=O)(=O)NC(C(=O)N2CCc3ccccc3C2)C(C)C)cc1 (stereo not drawn)	-6	-6
CCOC(=O)CSc1ccc(S(C)(=O)=O)cc1[N+](=O)[O-]	-3	-5
Cn1ncc(Oc2ccc3c(c2)OCO3)c(Nc2cccc(C(=O)NCC3CCCO3)c2)c1=O (stereo not drawn)	8	4
CCn1nnc2c(NCC(C)O)ncnc21 (stereo not drawn)	16	11
CCN(Cc1cnn(C)c1)C(=O)CC(=O)Nc1cccc(Cl)c1C	12	10
Cc1[nH]n(-c2ccccc2)c(=O)c1C(=O)c1ccc(S(=O)(=O)N2CCCCC2)cc1	13	6
CCn1cc(Cn2cnc(-c3ccccc3)c2/C(C)=C/c2ccco2)cn1	7	-3
COc1ccc(C(C)C)cc1-c1c(-c2ccccc2)ncn1CCC(N)=O	-3	-4
COCCNCc1nccn1Cc1cccc(F)c1	6	19
CCCc1nc(N2CCN(C(=O)c3cccc(OC)c3)CC2)c2c(-c3cccc(C(F)(F)F)c3)noc2n1	-5	-9
O=C(Nc1ccccc1F)C1CSCN1C(=O)c1ccsc1 (stereo not drawn)	8	3
CC(O)CN1CCC(=O)N(C/C=C/c2ccccc2)Cc2ccccc21 (stereo not drawn)	20	23
O=c1c2cnc3nc4ccccc4n3c2ccn1-c1cccc2ccccc12	-13	-21
O=C(NCCc1cccc(F)c1)c1ccc(CSc2ccc3ccccc3n2)cc1	-4	-9
CC(=O)c1ccc(C2CCCCC2)cc1	4	7
CN(Cc1cccnc1)C(=O)CCc1nnc(CCCCc2ccccc2)o1	0	-1
CCOC(=O)c1ccc2c(c1)nc(SCc1ccc(Cl)cc1)n2CCCOC(C)C	12	9
Cc1sc2ncnc(SCC(=O)NNC(=O)C3CC3)c2c1C	7	4
COCCN(Cc1ccc(OC)cc1)c1c(C)nc2ccc(C(=O)NCc3ccc4c(c3)OCO4)cn12	-6	-11
Nc1nc(-c2ccco2)nc(-c2ccco2)n1	4	3
COC(=O)c1ccc(C)c(NC(=O)C2CCN(C(=O)C3CC3)CC2)c1	7	4
CC(=O)Nc1cc2ccccc2cc1C(=O)NCC(C)(C)N1CCOCC1	6	2
Cc1ccccc1C1CCCN(C(=O)c2cc(COc3cccc4cnccc34)on2)C1 (stereo not drawn)	11	5

# Compounds from the list above containing fluorine:
Molecule	NPYLR7 agonist	NPYLR7 agonist max-min
COCCNCc1nccn1Cc1cccc(F)c1	6	19
CCCc1nc(N2CCN(C(=O)c3cccc(OC)c3)CC2)c2c(-c3cccc(C(F)(F)F)c3)noc2n1	-5	-9
O=C(Nc1ccccc1F)C1CSCN1C(=O)c1ccsc1 (stereo not drawn)	8	3
O=C(NCCc1cccc(F)c1)c1ccc(CSc2ccc3ccccc3n2)cc1	-4	-9

# The list goes on.
Molecule	NPYLR7 agonist	NPYLR7 agonist max-min
Cc1ccn2c(=O)cc(Cn3ncc(Cl)c(Cl)c3=O)nc2c1	13	8
O=C1CSC(c2cccnc2)N1c1cccc(F)c1 (stereo not drawn)	-5	-6
CCC(Sc1nc(N)c(NC(=O)c2ccccc2)c(=O)[nH]1)C(=O)OC (stereo not drawn)	-4	-7
CC(CN1CCc2ccccc2C1)NC(=O)c1cn(Cc2ccccc2F)nn1 (stereo not drawn)	0	1
CCOC(=O)c1ccc2c(c1)nc(SCc1cccc(SC(F)(F)F)c1)n2Cc1ccccn1	2	-3
Cc1c(CN2CCN(C(C)C)C(CCO)C2)c(=O)n(-c2ccccc2)n1C (stereo not drawn)	-1	0
COc1ccc(CCCC(=O)N2CCc3[nH]ncc3C2)cc1F	-23	-25
COCC(=O)N1CCN(C(C(=O)Nc2cccc(Cl)c2)C2CCCC2)CC1 (stereo not drawn)	-4	-3
COc1ccc(CN(CCc2c[nH]c3ccccc23)C(=O)CN(C(=O)c2ccccc2Br)C2CC2)cc1OC	-7	0
COCCCN(CC(=O)N(CCc1ccc(OC)c(OC)c1)Cc1sccc1C)C(=O)c1ccc(Cl)cc1	-5	5
Cc1nc(NC(=O)CN2CCc3ccccc32)sc1SCC(N)=O	-6	-4
Cc1cc(C)c(NC(=O)c2ccc(S(C)(=O)=O)cc2)c(Cl)c1	0	-1
Cc1cc(-c2nnc(NC(=O)c3cc(C)on3)o2)n(C)n1	11	9
CC(C)CCc1nc(N2CCN(C(=O)c3ccc(F)cc3)CC2)c2cnn(-c3cccc(Cl)c3)c2n1	18	29
CCCCN(NC(C)=O)c1nc(Cl)nc(NC(C)C)n1	5	3
CCS(=O)(=O)NCCc1csc(-c2ccc(Cl)cc2)n1	-4	-4
CC(C)(C)N(Cc1ccco1)Cc1nc(-c2ccco2)no1	-4	-8
CC(Nc1ccc(Oc2ccccc2C#N)cc1)C(=O)N1CCOCC1 (stereo not drawn)	6	5
CCOc1cc(/C=C2/C(=N)N3N=C(CC)SC3=NC2=O)ccc1OC(=O)c1ccco1	0	-1
COc1cc(C(=O)NC2CCCN(C3CCN(C)CC3)C2)ccc1C (stereo not drawn)	-2	-4
CC(C)OCCCNC(=O)c1c(O)nc2sccn2c1=O	-1	18
Cc1nonc1NC(=O)c1ccc(F)c(COCC2CC2)c1	0	-1
COc1ccccc1C(=O)Nc1cccc(NC(=O)C2CCCN(C)C2)c1 (stereo not drawn)	1	-3
CCCn1c(=O)c2c(nc3n2CCCN3c2ccc(OC)cc2)n(C)c1=O	2	-3
Cc1cnc(-n2nnc(C(=O)N3CCN(c4ncccn4)CC3)c2C)s1	-1	-3
CCCOc1ccc(C(F)(F)F)cc1NC(=O)COc1ccccc1OC	-3	-4
CC1(C)N=C(c2ccc(Cl)c(Cl)c2)C(=S)N1	4	0
CCc1ccc(C(COC)NC(=O)N2CCC(n3cncn3)CC2)o1 (stereo not drawn)	0	-14
Cc1ccc(F)c(S(=O)(=O)NC(=O)C2(C)CCN2C(=O)CCC2CCCC2)c1 (stereo not drawn)	14	13
CN(Cc1nc(-c2cnccn2)no1)CC1(c2ccccc2)CC1(C)C (stereo not drawn)	-4	-5
CC1CN(S(=O)(=O)c2ccc(F)c(F)c2)CC(C)O1 (stereo not drawn)	-4	-5
O=C1CC(c2cccc(Oc3ccccc3)c2)NC(=O)N1 (stereo not drawn)	-5&8	-9&5
CCN(CC)c1ccc(C(F)(F)F)cc1NC(=O)c1c(C)noc1C	8	1
Cc1[nH]n(-c2c(F)c(F)c(F)c(F)c2F)c(=O)c1C=NCc1ccc(F)cc1	-8	-14
CC1=C(C(=O)C(C)C)C(c2cccs2)c2c(nc(SCC(C)C)[nH]c2=O)N1 (stereo not drawn)	3	2
C=Cc1ccc(Cn2cc(C(=O)NCc3ccc(OC)c(OC)c3)sc2=O)cc1	13	6
COc1ccc(Cl)cc1-c1nc(C=Nc2ccc(Cl)cn2)c(O)o1	-2	-2
CCn1cc(C(CC(=O)N2CCN(c3ccccc3F)CC2)c2cc(OC)cc(OC)c2)c2ccccc21 (stereo not drawn)	0	13
CSc1ccc(C(=O)CCC(=O)N[C@@H](C)[C@H](O)c2ccccc2)cc1	-4	-6
Cc1ccn2c(=O)c(NC(=O)c3ccc(C(C)(C)C)cc3)c(C)nc2c1	-4	-4

# (next part)
# Second line of a record: NPYLR7 agonist	NPYLR7 agonist max-min
Cc1cc(C)c(C=NNc2nc3ccccc3o2)c(C)c1
→ 4	4
C=CCC1(CC=C)CCCN1C(=O)c1cccc(NC(=O)CC)c1
→ -1	-5
CCOc1cc(C2NC(=S)N(c3ccc4c(c3)OCCO4)C(C)=C2C(=O)OC)ccc1OC (stereo not drawn)
→ 0	75
CCOC(=O)c1c(CN2CCCCC2)n(-c2ccccc2)c2cc(Br)c(O)c(CN(C)C)c12
→ -12	-19
CC(C)Cc1nnc(-c2cc3ccccc3n2CC(=O)NCc2ccc(F)cc2)o1
→ 2	0
COc1ccc(CN2CCCC(CNC(=O)NC(C)C)C2)cc1O (stereo not drawn)
→ -3	-3
O=c1c2cc3c(=O)n(CCc4ccccc4)ccc3nc2ccn1CCO
→ 2	2
O=C(NCc1cccc(-c2ncc(-c3ccccc3)[nH]2)c1)c1cccc(F)c1
→ 4	0
CN(Cc1ccccc1F)C(=O)c1cccc2cn[nH]c12
→ 8	3
CC(C)(C)c1ccc(CC(=O)N2CCC2(C)C(=O)Nc2cnc3ccccc3c2)cc1 (stereo not drawn)
→ 8	2
CC(=O)c1c(C)cc(C)c(COc2ccc(C(N)=O)cc2)c1C
→ 1	11
CN(CC(O)COC12CC3CC(CC(C3)C1)C2)C1CCCCC1 (stereo not drawn)
→ 8	5
O=C(CN1CCOCC1)Nc1ncc(Cc2ccccc2)s1
→ 0	6
CC(C)Nc1ncccc1C(=O)Nc1cccc(Oc2ccccc2)c1
→ -6	-14
O=C(CCCN1CCOCC1)Nc1cc(C(=O)Nc2cccc(C(F)(F)F)c2)ccc1N1CC2CC(C1)c1cccc(=O)n1C2 (stereo not drawn)
→ -4	4
CCCCc1ccc(C(=O)N(CC(=O)Nc2cc(C(C)(C)C)nn2-c2ccc(C)cc2C)Cc2ccco2)cc1
→ -1	4
COc1ccc(S(=O)C(C)c2ncc(C(C)(C)C)o2)cc1OC (stereo not drawn)
→ 2	1
COc1ccc(C(=O)Nc2c3c(nn2C(C)(C)C)CS(=O)C3)c(OC)c1 (stereo not drawn)
→ -2	-4
CN(C)C(=O)CN1CCN(C(=O)CC(c2ccccc2)c2ccccc2F)CC1 (stereo not drawn)
→ 3	1
Cc1cc(NC(=O)c2cccc(F)c2)n(-c2nc3c(c(=O)[nH]2)CCC3)n1
→ 2	-2

# Reprinted at random: 6 entries already listed.
# Second line of a record: NPYLR7 agonist	NPYLR7 agonist max-min
CN(C)C(=O)CN1CCN(C(=O)CC(c2ccccc2)c2ccccc2F)CC1 (stereo not drawn)
→ 3	1
O=C(NCc1cccc(-c2ncc(-c3ccccc3)[nH]2)c1)c1cccc(F)c1
→ 4	0
CCCCc1ccc(C(=O)N(CC(=O)Nc2cc(C(C)(C)C)nn2-c2ccc(C)cc2C)Cc2ccco2)cc1
→ -1	4
CN(Cc1ccccc1F)C(=O)c1cccc2cn[nH]c12
→ 8	3
CCOC(=O)c1c(CN2CCCCC2)n(-c2ccccc2)c2cc(Br)c(O)c(CN(C)C)c12
→ -12	-19
O=c1c2cc3c(=O)n(CCc4ccccc4)ccc3nc2ccn1CCO
→ 2	2

# Some of the entries above, set out differently.
smiles: O=C(c1ccc([N+](=O)[O-])cc1)N(CC(=O)N1CCc2sccc2C1c1ccc(Cl)cc1Cl)CC1CCCO1 (stereo not drawn)
  NPYLR7 agonist = 1 | NPYLR7 agonist max-min = 6
smiles: CCC(=O)N1c2ccccc2N=C2CC(c3ccccc3)CC(=O)C2C1c1ccc(Cl)cc1 (stereo not drawn)
  NPYLR7 agonist = -4 | NPYLR7 agonist max-min = -12

# Continued.
# Second line of a record: NPYLR7 agonist	NPYLR7 agonist max-min
Cc1cccc(-n2c(-c3ccc(Cl)cc3)cc(C(=O)NC(C)CCc3ccccc3)c2C)c1 (stereo not drawn)
→ -9	-3
COc1cc2c(cc1OC)C(c1cccc(Cl)c1)N(C(=O)c1ccco1)CC2 (stereo not drawn)
→ -4	7
CC(=O)Nc1ccc(S(=O)(=O)NC(Cc2ccccc2)c2nnc(SCc3ccccc3)n2-c2cc(Cl)ccc2C)cc1 (stereo not drawn)
→ -9	-4
COc1ccc(-c2cc(CO)no2)cc1
→ -2	-4
Cc1ccc2cc(CCNC(=O)c3ccc(C(F)(F)F)cc3)c(=O)[nH]c2c1C
→ 1	-1
COc1ccc(-c2noc(C3CCN(C(=O)C(C)Oc4ccccc4)CC3)n2)cc1 (stereo not drawn)
→ 5	-2
Cc1nc2c([nH]1)C(c1cccc([N+](=O)[O-])c1)C(C#N)C(=N)O2 (stereo not drawn)
→ 1	2
Cc1ccc(S(=O)(=O)NC(=O)C2(C)CCN2C(=O)C2(c3ccccc3)CCCC2)cc1 (stereo not drawn)
→ 0	2
CCOC(=O)CC(=O)CSc1ncnc2c1nnn2-c1ccc(OC)cc1
→ 8	6
CCOc1ncccc1C(=O)N1CCCn2nc(C(=O)NC3CC3)cc2C1
→ -3	-6
O=C(Nc1ccc(-c2ncn[nH]2)cc1)c1ccccc1OC1CCCC1
→ -2	19
COCCNC(=O)CCc1csc(NC(=O)c2ccc[nH]c2=O)n1
→ -12	-17
Cc1ccc(F)cc1S(=O)(=O)N1CCN(c2nccc(-c3cccs3)n2)CC1
→ 6	-2
FC(F)(F)C(OCc1n[nH]c(Cc2ccccc2)n1)c1ccccc1 (stereo not drawn)
→ -1	0

# Source: PubChem (Fisher Drug Discovery Resource Center)
